Screening data from PubChem.
WNV NS2B-NS3 inh: WNV NS2B-NS3 proteinase inhibition; 65,000 tested, 0.18% active; WNV NS2B-NS3 protease, fluorogenic substrate Ex360/Em465; hits give low values; z-score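 (tested at a level between 10 and 100 µM)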;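 active = z-score at -3 or under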;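 note: score is relative to mean and spread of the compound wells of a plate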
Target sequence (P06935 1371-1501 limits assumed): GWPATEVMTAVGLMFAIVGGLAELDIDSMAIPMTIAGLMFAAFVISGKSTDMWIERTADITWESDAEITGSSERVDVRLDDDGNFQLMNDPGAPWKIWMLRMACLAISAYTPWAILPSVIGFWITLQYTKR
Target sequence (P06935 1502-1679 limits assumed): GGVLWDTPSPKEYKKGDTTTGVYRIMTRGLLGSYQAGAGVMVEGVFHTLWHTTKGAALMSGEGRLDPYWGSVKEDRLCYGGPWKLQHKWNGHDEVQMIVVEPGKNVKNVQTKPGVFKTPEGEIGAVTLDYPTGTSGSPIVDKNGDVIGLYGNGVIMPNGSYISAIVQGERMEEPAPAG
MT1-MMP reporter: inhibitors of MT1-MMP promoter transcription, cell-based, luciferase reporter, luminescence (AID 618); MT1-MMP promoter luciferase reporter cells, luminescence; calls from a first round at 10 µM; hits with a dose series show EC50 in µM; 87,000 tested, 0.62% active;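 active = over half of the reporter light lost at 10 µM or EC50 under 50 µM; inactive = the rest and hits that failed the dose series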;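 note: actives suppress MT1-MMP promoter-driven transcription so potencies describe inhibitors; HT1080 fibrosarcoma cells; overnight exposure; toxic or luciferase-blocking compounds were not removed from the actives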
Hsc70 ATP site: Hsc70 inhibitors, probe displacement, primary screen, biochemical, fluorescence polarization (AID 568) | displacement, % at 20 µM; hits with a dose series show IC50 in µM | 83,000 tested, under 10 active | Hsc70 fluorescence polarization, probe displacement; higher % means a stronger effect; strong numbers were not always called active;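 active = displacement above 50% without optical interference and an IC50 on retest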;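 note: ATPase domain with a fluorescein-tagged ATP probe; 0% = vehicle and 100% = excess ADP; read after one hour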
An asterisk follows results filed as active. These rows are one share of the data; count on the stated rates, not on these rows.

Screening CCOc1ccc(-c2nnn(CC(=O)c3ccc4c(c3)OCCO4)n2)cc1OCC returned WNV NS2B-NS3 inh -0.99, MT1-MMP reporter inactive and Hsc70 ATP site -2.6%.
CC(CNC(=O)CC(C)(C)C)NC(=O)CC(C)(C)C (stereo unspecified) was read as MT1-MMP reporter inactive and Hsc70 ATP site 0.1%.
Screening Cn1c(=O)oc2cc(S(=O)(=O)NCC3CCCO3)ccc21 (stereo unspecified) returned WNV NS2B-NS3 inh -1.6, MT1-MMP reporter inactive and Hsc70 ATP site -0.6%.
`COc1ccc(C2/C(=C(/O)c3ccccc3)C(=O)C(=O)N2CCN2CCOCC2)c(OC)c1` (stereo unspecified) gave WNV NS2B-NS3 inh 0.17, MT1-MMP reporter inactive and Hsc70 ATP site -0.1%.
For CCN1CCCC1CNC(=O)c1cc2c(-c3ccc(Cl)cc3)nn(C)c2s1 (stereo unspecified) the results were WNV NS2B-NS3 inh 1.1, MT1-MMP reporter inactive and Hsc70 ATP site 5.4%.
Screening Fc1cccc(Cl)c1Cn1nnc(-c2ccc3c(c2)OCO3)n1 returned WNV NS2B-NS3 inh -0.31, MT1-MMP reporter inactive and Hsc70 ATP site 4.9%.
COc1ccc(N2C(=O)CSC23C(=O)N2c4c(cccc43)C(C)=CC2(C)C)cc1 (stereo unspecified) was read as MT1-MMP reporter inactive and Hsc70 ATP site 6.3%.
For CCn1c(CN2CCN(C(=O)c3ccco3)CC2)nc2c1c(=O)n(C)c(=O)n2C the results were WNV NS2B-NS3 inh -0.44, MT1-MMP reporter inactive and Hsc70 ATP site -2.0%.
Screening Cc1c(NC(=O)c2cnn3c2NC(c2ccc(Br)cc2)CC3C(F)(F)F)c(=O)n(-c2ccccc2)n1C (stereo unspecified) returned MT1-MMP reporter inactive and Hsc70 ATP site 1.7%.
COc1cc(Cl)c(C)cc1NC(=O)CSc1nc2ccccc2o1 was read as WNV NS2B-NS3 inh 0.06, MT1-MMP reporter inactive and Hsc70 ATP site -2.6%.
`CCc1ccc2c(c1)/C(=C/C(=O)c1cccs1)C(=O)N2` gave MT1-MMP reporter inactive and Hsc70 ATP site -3.0%.
For FC(F)(F)c1ccc2nnc(-c3c(Cl)cccc3Cl)n2c1 the results were MT1-MMP reporter inactive and Hsc70 ATP site 0.2%.
For COc1ccc(NC(=O)CN(C)S(=O)(=O)c2cccc3cccnc23)cc1 the results were WNV NS2B-NS3 inh -0.21, MT1-MMP reporter inactive and Hsc70 ATP site 1.2%.
Screening C=CCC(C#Cc1ccccc1)N(C)C (stereo unspecified) returned WNV NS2B-NS3 inh -0.68, MT1-MMP reporter inactive and Hsc70 ATP site -1.6%.
O=C(CSc1n[nH]c(-c2ccncc2)n1)c1ccccc1 was read as WNV NS2B-NS3 inh -1.6, MT1-MMP reporter inactive and Hsc70 ATP site 0.7%.
For Cc1ccc(OCCn2c(CCCO)nc3ccccc32)cc1 the results were WNV NS2B-NS3 inh -1.4, MT1-MMP reporter inactive and Hsc70 ATP site -3.1%.
For NC(=O)c1oc2ccccc2c1NC(=O)c1nc2ccccc2s1 the results were WNV NS2B-NS3 inh 0.67, MT1-MMP reporter inactive and Hsc70 ATP site -12%.
`Cc1ccsc1C(=O)OCC(=O)c1cc2ccccc2o1` gave WNV NS2B-NS3 inh -0.06, MT1-MMP reporter inactive and Hsc70 ATP site -7.3%.
CCC(=O)N1c2ccc(S(=O)(=O)CCC(=O)NCCC3=CCCCC3)cc2CC1C (stereo unspecified) was read as WNV NS2B-NS3 inh 0.25, MT1-MMP reporter inactive and Hsc70 ATP site -7.0%.
CN1C(=O)CC(n2c(CO)nc3ccccc32)C1=O (stereo unspecified) was read as WNV NS2B-NS3 inh -0.09, MT1-MMP reporter inactive and Hsc70 ATP site -8.7%.
c1cncc(-c2nnc3n2N=C(c2cccs2)CS3)c1 was read as WNV NS2B-NS3 inh -1.3, MT1-MMP reporter inactive and Hsc70 ATP site 3.9%.
`O=C(COc1ccccc1)NCc1nnc(SCC(=O)Nc2nccs2)n1-c1ccccc1` gave WNV NS2B-NS3 inh -0.69, MT1-MMP reporter inactive and Hsc70 ATP site -0.5%.
`NC(=O)CSc1nc2ccccc2n1-c1ccccc1` gave WNV NS2B-NS3 inh -0.96, MT1-MMP reporter inactive and Hsc70 ATP site 2.7%.
CCOC(=O)C1C(=O)C=C(c2ccc(Br)cc2)CC1c1ccco1 (stereo unspecified) was read as MT1-MMP reporter inactive and Hsc70 ATP site 5.1%.
For Cc1ccc(C(=O)N2CCN(c3ccc(NC(=O)c4ccc(Br)o4)cc3)CC2)cc1 the results were MT1-MMP reporter inactive and Hsc70 ATP site -7.2%.
COc1ccc(NC(=O)COc2ccccc2)c(OC)c1 was read as WNV NS2B-NS3 inh -0.27, MT1-MMP reporter inactive and Hsc70 ATP site 1.1%.
For COc1ccc(OC(C)C(=O)NCc2cccnc2)cc1 (stereo unspecified) the results were WNV NS2B-NS3 inh -0.35, MT1-MMP reporter inactive and Hsc70 ATP site 2.6%.
For Cn1c2c(c(=O)n(C)c1=O)CN(CCCN1CCOCC1)CN2 the results were WNV NS2B-NS3 inh 0.42, MT1-MMP reporter inactive and Hsc70 ATP site 0.7%.
O=C1C(Cl)=C(NCC2CCCO2)C(=O)N1CCc1ccccc1 (stereo unspecified) was read as WNV NS2B-NS3 inh 0.41, MT1-MMP reporter inactive and Hsc70 ATP site 1.0%.
Screening O=c1c2cnn(-c3ccccc3)c2nnn1Cc1ccccn1 returned WNV NS2B-NS3 inh -0.18, MT1-MMP reporter inactive and Hsc70 ATP site 4.8%.
`c1cncc(Nc2nc(-c3ccncc3)cs2)c1` gave WNV NS2B-NS3 inh -1, MT1-MMP reporter inactive and Hsc70 ATP site 1.0%.
Screening O=C1c2ccccc2C2(c3ccccc3)NCCN12 (stereo unspecified) returned WNV NS2B-NS3 inh -1.5, MT1-MMP reporter inactive and Hsc70 ATP site -2.9%.
Cc1cccc(CN(C)CCc2ccccn2)c1 was read as WNV NS2B-NS3 inh -1.5, MT1-MMP reporter inactive and Hsc70 ATP site -3.1%.
For CS(=O)(=O)N1CCC(C(=O)Nc2ccccc2F)CC1 the results were WNV NS2B-NS3 inh -0.57, MT1-MMP reporter inactive and Hsc70 ATP site 3.2%.
`Cc1ccccc1NS(=O)(=O)c1ccc2[nH]cc(C(=O)N(C)Cc3ccco3)c(=O)c2c1` gave WNV NS2B-NS3 inh -0.9, MT1-MMP reporter inactive and Hsc70 ATP site 1.5%.
CCN(CC)c1ccc(NC(=O)COC(=O)c2ccc3ccccc3n2)cc1 was read as MT1-MMP reporter inactive and Hsc70 ATP site 1.7%.
Screening O=C(CN1C(=O)NC2(CCCc3ccccc32)C1=O)NCc1ccco1 (stereo unspecified) returned MT1-MMP reporter inactive and Hsc70 ATP site 1.6%.
`COC(=O)C(CCSC)NC(=O)C12CC3CC(CC(C3)C1)C2` (stereo unspecified) gave MT1-MMP reporter inactive and Hsc70 ATP site -1.3%.
Screening CCCC(=O)Nc1ccc(Cl)c(NC(=O)c2cccnc2Cl)c1 returned MT1-MMP reporter inactive and Hsc70 ATP site 5.6%.
`O=C(c1ccc2nc(N3CCOCC3)sc2c1)N1CCN(C(=O)c2ccco2)CC1` gave WNV NS2B-NS3 inh 0.56, MT1-MMP reporter inactive and Hsc70 ATP site -0.6%.
CC1(C)CC(NC(=O)C23CCC(C)(/C(=N/O)C2)C3(C)C)CC(C)(C)N1 (stereo unspecified) was read as WNV NS2B-NS3 inh 0.34, MT1-MMP reporter inactive and Hsc70 ATP site 0.1%.
For CCc1cc2c(CN3CCN(CC)CC3)cc(=O)oc2cc1O the results were WNV NS2B-NS3 inh 6.9, MT1-MMP reporter inactive and Hsc70 ATP site 1.9%.
`CC1(C)CC(C#N)(N2CCOCC2)CCO1` (stereo unspecified) gave WNV NS2B-NS3 inh -0.74, MT1-MMP reporter inactive and Hsc70 ATP site -6.7%.
`O=C(O)C1CC(=O)N(Cc2cccs2)C1` (stereo unspecified) gave WNV NS2B-NS3 inh -0.23, MT1-MMP reporter inactive and Hsc70 ATP site -1.4%.
`O=C(NCc1ccccn1)c1ccc2nc(-c3ccco3)c(-c3ccco3)nc2c1` gave WNV NS2B-NS3 inh -1.4, MT1-MMP reporter inactive and Hsc70 ATP site 8.2%.
CCOCC(=O)Nc1nnc(COC)s1 was read as MT1-MMP reporter inactive and Hsc70 ATP site 2.5%.
`CCOC(=O)N1CCN(C(=O)c2cc(-c3ccc(F)cc3)[nH]c2C)CC1` gave WNV NS2B-NS3 inh 0.03, MT1-MMP reporter inactive and Hsc70 ATP site -4.0%.
COc1ccc(NC(=O)C(C/C=C(/C)Cl)C(C)=O)cc1 (stereo unspecified) was read as MT1-MMP reporter inactive and Hsc70 ATP site -3.0%.
For Cc1nn(Cc2ccc(Cl)cc2)c(C)c1NC(=O)c1cc(-c2ccc3c(c2)OCO3)on1 the results were WNV NS2B-NS3 inh -0.16, MT1-MMP reporter inactive and Hsc70 ATP site 0.6%.
For CCC(C)N1C(=O)/C(=C/c2c(NCCCOC(C)C)nc3c(C)cccn3c2=O)SC1=S (stereo unspecified) the results were MT1-MMP reporter inactive and Hsc70 ATP site 22%.
For CCN1CCN(Cc2ccc(OCc3ccccc3)cc2)CC1 the results were WNV NS2B-NS3 inh 0.81, MT1-MMP reporter inactive and Hsc70 ATP site -0.9%.
Cc1[nH]c2ccccc2c1C1=CN2CCS(=O)(=O)N=C2S1 was read as WNV NS2B-NS3 inh 0.67, MT1-MMP reporter inactive and Hsc70 ATP site -1.7%.
For O=S1(=O)CCN2C=Nc3sc4c(c3C2=N1)CCCC4 the results were WNV NS2B-NS3 inh 1.3, MT1-MMP reporter inactive and Hsc70 ATP site 0.1%.
`Cc1ccc(-c2c3c(=O)n(C)c(=O)n(C)c3cn2-n2cnnc2)cc1` gave WNV NS2B-NS3 inh -0.85, MT1-MMP reporter inactive and Hsc70 ATP site 6.7%.
For COc1ccc(OC)c(CCNC(=O)Cn2sc3nc(C)cc(C)c3c2=O)c1 the results were WNV NS2B-NS3 inh -0.66, MT1-MMP reporter inactive and Hsc70 ATP site -3.3%.
`CCN1CCN(CC(O)COc2ccc(C)c(C)c2)CC1` (stereo unspecified) gave WNV NS2B-NS3 inh -0.59, MT1-MMP reporter inactive and Hsc70 ATP site 0.9%.
For COC(=O)c1ccccc1NC(=O)c1ccc(-c2cccc(Cl)c2)o1 the results were MT1-MMP reporter inactive and Hsc70 ATP site 0.3%.
For Cc1ccc(C(=O)NC2CCSC2=O)cc1 (stereo unspecified) the results were MT1-MMP reporter inactive and Hsc70 ATP site 4.2%.
COCCNC(=O)c1cc(-c2ccc3c(c2)OCO3)on1 was read as WNV NS2B-NS3 inh 0.64, MT1-MMP reporter inactive and Hsc70 ATP site -5.4%.
For Cn1c(=O)c(=O)n(C)c2cc(S(=O)(=O)N3CCN(c4cccc(C(F)(F)F)c4)CC3)ccc21 the results were WNV NS2B-NS3 inh -1.3, MT1-MMP reporter inactive and Hsc70 ATP site -0.1%.
For O=C1CC(NCc2ccco2)C(=O)N1CCc1ccccc1 (stereo unspecified) the results were WNV NS2B-NS3 inh -0.7, MT1-MMP reporter inactive and Hsc70 ATP site 1.8%.
Screening O=C(O)CC(O)C(=O)O (stereo unspecified) returned WNV NS2B-NS3 inh 1.2, MT1-MMP reporter inactive and Hsc70 ATP site -0.7%.
Screening CCCCN(CC)C(=O)c1ccc(Cl)c(Cl)c1 returned WNV NS2B-NS3 inh -0.28, MT1-MMP reporter inactive and Hsc70 ATP site -1.3%.
Screening COc1cc(C2CC(=O)N(CC(=O)NCc3ccco3)c3ccccc3S2)cc(OC)c1OC (stereo unspecified) returned WNV NS2B-NS3 inh -1.2, MT1-MMP reporter inactive and Hsc70 ATP site 4.7%.
For O=C(Nc1nccs1)c1cc2c(s1)CCCCC2 the results were MT1-MMP reporter 0.55µM* and Hsc70 ATP site -4.2%.
Screening CC1CCc2nc(NC(=O)CN3CCN(Cc4ccc5c(c4)OCO5)CC3)sc2C1 (stereo unspecified) returned WNV NS2B-NS3 inh -0.34, MT1-MMP reporter inactive and Hsc70 ATP site -2.1%.
Screening Cc1ccc(C(=O)Nc2nc(COc3ccccc3)cs2)s1 returned WNV NS2B-NS3 inh 0.73, MT1-MMP reporter inactive and Hsc70 ATP site 1.8%.
`Cc1nnc(N(Cc2ccco2)C(=O)c2ccc(C#N)cc2)s1` gave MT1-MMP reporter inactive and Hsc70 ATP site 1.3%.
For c1c2c(cc3sc(N4CCCCC4)nc13)OCCO2 the results were WNV NS2B-NS3 inh 0.29, MT1-MMP reporter active and Hsc70 ATP site 5.5%.

Ordered by molecular weight (low to high): 6 of the compounds above.
Screening O=C(O)CC(O)C(=O)O (stereo unspecified) returned WNV NS2B-NS3 inh 1.2, MT1-MMP reporter inactive and Hsc70 ATP site -0.7%.
For c1c2c(cc3sc(N4CCCCC4)nc13)OCCO2 the results were WNV NS2B-NS3 inh 0.29, MT1-MMP reporter active and Hsc70 ATP site 5.5%.
For O=C(Nc1nccs1)c1cc2c(s1)CCCCC2 the results were MT1-MMP reporter 0.55µM* and Hsc70 ATP site -4.2%.
Screening Cc1ccc(C(=O)Nc2nc(COc3ccccc3)cs2)s1 returned WNV NS2B-NS3 inh 0.73, MT1-MMP reporter inactive and Hsc70 ATP site 1.8%.
Screening CC1CCc2nc(NC(=O)CN3CCN(Cc4ccc5c(c4)OCO5)CC3)sc2C1 (stereo unspecified) returned WNV NS2B-NS3 inh -0.34, MT1-MMP reporter inactive and Hsc70 ATP site -2.1%.
Screening COc1cc(C2CC(=O)N(CC(=O)NCc3ccco3)c3ccccc3S2)cc(OC)c1OC (stereo unspecified) returned WNV NS2B-NS3 inh -1.2, MT1-MMP reporter inactive and Hsc70 ATP site 4.7%.
